Compound activity: PubChem BioAssay, National Center for Advancing Translational Sciences (NCATS)
PINK1 expr mod = changes PINK1 expression | PINK1 immunofluorescence, high-content cytometry, 24 h | Potency, µM (doses to about 76.6 µM), without a hit: top-dose activation (PINK1 increase), most hits filed as activators | 410,000 compounds, 0.2% hits | AID 624263; active = well fitted activation curve with a large enough effect; inconclusive = small, poorly fitted or top-dose-only effect; inactive = flat fitted curve, though single readings scatter; cell line not stated here;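 also: potency is read from the fitted curve at half-maximal effect; % of control where 0% means no effect; nearly all actives have a fitted effect of over 65% in size; a mitochondrial uncoupler was the plate control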
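Fluorescence from anti-PINK1 antibody, together with nuclear and cell stains, was scanned on a laser-scanning cytometer. Before staining, stable-line cells were incubated 24 hours with compounds at 5 concentrations; primary antibody 12 h at 10 degrees C.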
TRPML1 blocker = human mucolipin-1 channel inhibition | 390,000 compounds, 0.02% hits | Q9GZU1 | activity change, negative = inhibition, % (concentration not given with the values) | AID 624415 | TRPML1-inducible cells, Ca2+ dye fluorescence, FDSS; stronger effect = lower value; inhibition of EC80 agonist-evoked calcium signal; in the data active means activity change below about -50%; inconclusive means about -30% to -50%; inactive means above about -30%;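 also: stimulus is agonist 54-4 at its EC80 concentration; % is scaled to controls: 0 for no effect and ±100 for the full control effect; the text of the record puts the active cut at -80%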
Target sequence (Q9GZU1 whole entry, looked up): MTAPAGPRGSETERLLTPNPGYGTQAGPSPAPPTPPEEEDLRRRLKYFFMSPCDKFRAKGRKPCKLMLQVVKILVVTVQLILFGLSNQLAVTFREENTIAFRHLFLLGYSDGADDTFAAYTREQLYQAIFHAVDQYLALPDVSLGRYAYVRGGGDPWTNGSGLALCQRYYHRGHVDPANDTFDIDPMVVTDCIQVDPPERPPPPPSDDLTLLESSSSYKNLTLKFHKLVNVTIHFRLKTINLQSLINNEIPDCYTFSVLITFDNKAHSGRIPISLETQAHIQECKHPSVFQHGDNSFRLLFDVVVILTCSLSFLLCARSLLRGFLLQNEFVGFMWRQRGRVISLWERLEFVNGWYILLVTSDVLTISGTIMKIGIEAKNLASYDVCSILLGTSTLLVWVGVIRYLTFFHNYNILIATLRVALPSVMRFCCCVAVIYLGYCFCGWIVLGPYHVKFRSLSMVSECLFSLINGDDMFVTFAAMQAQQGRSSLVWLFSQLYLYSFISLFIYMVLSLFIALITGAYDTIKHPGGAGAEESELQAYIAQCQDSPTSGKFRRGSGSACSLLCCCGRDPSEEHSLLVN
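Tet-induced TRPML1-DL cells loaded with Ca8 no-wash calcium dye were read kinetically on FDSS. Compound addition was followed by EC80 agonist 54-4 (4 uM final); inhibition was read over 110 s.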
TRPML1 ag = agonists of human TRPML1 channel; TRPML1-expressing cells, Ca2+ dye fluorescence, FDSS; host cell line not named in the record; reference of the full effect not given here; activation, % (no concentration beside the values); 410,000 compounds, 0.12% hits; in the data active = activation above about 50%; inconclusive = about 30% to 50%; inactive = below about 30%; also: 0% is about no effect; the text of the record puts the active cut at 80%
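Calcium fluorescence on an FDSS kinetic reader gave the read-out. Tet-induced TRPML1-DL cells were plated overnight, dye-loaded (Ca8 with quencher, 45-90 min, room temperature, dark), then read 110 s after compound addition, and again 110 s after 4uM final 54-4 (EC80).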
Menin MLL FP FL = inhibitors of human menin-MLL interaction, wild-type MLL peptide. FP activity change, % at 61.4 µM. AID 1766. Fluorescence polarization, fluorescein-MLL peptide displacement from menin. 290,000 tested, under 10 active; inconclusive = falling polarisation curve, or a change in total fluorescence; inactive = total fluorescence flat and polarisation flat or rising; no compound was filed as active; the % refers to the polarisation; negative = inhibition;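 also: % of control where 0% means no effect; inhibitors lower the polarisation; unlabelled MLL peptide was the positive control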
Sfp PPTase inh = inhibitors of Bacillus subtilis Sfp phosphopantetheinyl transferase | Biochemical Sfp PPTase activity, qHTS | Q9F4F7 | Potency, µM, without a hit: max response, negative = inhibition, actives largely listed as inhibitors | 310,000 compounds, 3.5% hits | AID 1490; active = well fitted inhibition curve with a large enough effect; inconclusive = small, poorly fitted or top-dose-only effect, or another doubt; inactive = no such curve, though single readings can be large or run the other way;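 also: the enzyme is Sfp with the accession as filed and its product quenches rhodamine fluorescence; potency is read from the fitted curve at half-maximal effect; 0% = enzyme reaction without inhibitor and -100% = no enzyme wells; top concentration of the series not given in the record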
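With Hepes-Na pH 7.6 buffer containing 10 mM MgCl2, Sfp (15 nM) modified BHQ-2-YbbR (12.5 uM) using rhodamine-CoA (5 uM). Two reads 30 minutes apart at 525/598 nm yielded each well's rate.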
TRPV1 potentiator = potentiators of human vanilloid receptor 1 (TRPV1) | TRPV1-expressing cells, Fluo-8 calcium influx, capsaicin EC20 potentiation; host cell line not named in the record; control for the full effect not named in the record | potentiation, % at 8.33 µM | 320,000 compounds, 0.02% hits; active means potentiation above 80%; inconclusive means 30% to 80%; inactive means below 30%; also: 0% is about no effect
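Cells expressing TRPV1 were dye-loaded with Fluo-8 and read kinetically: 10 s baseline, 3 min after compound (agonist portion), then 2 min after EC20 capsaicin (allosteric enhancer portion). Calcium-bound dye fluorescence at 480/520 nm.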
ClpP mod = qHTS Assay for Activators of ClpP | 340,000 compounds, 1.9% hits | AID 651965, 2013 | Potency, µM (doses to about 57.5 µM), for inactives: top-dose activity change, negative = active | purified B. subtilis ClpP, FRET peptide cleavage, 20 min; active = well fitted falling curve with a large enough effect; inconclusive = small, poorly fitted or top-dose-only effect; inactive = no such curve, though single readings can be large or run the other way; also: potency is read from the fitted curve at half-maximal effect; the source files actives as falling curves though it sought activators and does not explain the sign; nearly all actives have a fitted effect of over 65% in size; many hits overshoot -100%
Target sequence (P80244 whole entry, looked up): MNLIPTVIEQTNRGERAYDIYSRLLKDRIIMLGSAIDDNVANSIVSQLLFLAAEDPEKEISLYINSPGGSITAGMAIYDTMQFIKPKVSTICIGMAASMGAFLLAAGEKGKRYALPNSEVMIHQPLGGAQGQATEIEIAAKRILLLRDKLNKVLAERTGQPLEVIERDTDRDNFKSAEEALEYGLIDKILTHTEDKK
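ClpP 10 microg/mL final, pH 8 Tris/KCl buffer with BSA, glycerol, Tween-20; compound pinned in; FRET-FV substrate; RT 20 min; Ex320/Em430; ΔFRET vs ADEP 5.8 microM, DMSO, no enzyme.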
Starred values were filed as active, the others as inactive; ? = inconclusive; . = no result given; & = joins results of further samples; [ ] = remark or other dose. Rows were taken by chance (roughly 4.4% active in at least one column).

SMILES | PINK1 expr mod | TRPML1 blocker | TRPML1 ag | Menin MLL FP FL | Sfp PPTase inh | TRPV1 potentiator | ClpP mod
COc1ccc(CNC(=O)CCc2c(C)nc3cc(-c4ccccc4OC)nn3c2C)cc1 | 0.0% | 16 | -0.5 | 1.0 | -6% | -1 | -20%
O=C(c1cc2sccc2n1Cc1ccccc1)N1CCN(c2nc3ccccc3s2)CC1 | -1.4% | 23 | 0.0 | 3.9 | 3% | 25 | -3.7%
Cc1nc(C(=O)N2CCc3c([nH]c4ccccc34)C2c2cc(F)ccc2F)cs1 (centres undefined) | -2.2% | 7 | 0.3 | 13 | -1% | 4 | .
COc1ccc(C(C#N)CC(=O)c2ccc3c(c2)OCO3)cc1OC (centres undefined) | 1.0% | -16 | -0.8 | . | . | . | -9.5%
C=Cn1c(C(=O)O)cc(CC)c1-c1ccccc1 | -3.8% | 2 | -1.0 | 2.4 | 26% | 3 | -16%
Cc1ccccc1-c1nnc(SCC(=O)N(C)C2CCS(=O)(=O)C2)n1C (centres undefined) | -1.3% | 0 | -0.1 | . | . | . | -4.7%
CCOC(=O)c1c(NC(=O)Cn2ccsc2=N)sc(C)c1C | -1.1% | -9 | -0.6 | -3.1 | -13% | 10 | .
CCOC(=O)N1CCN(C(=O)c2ccc(CN(c3ccc(C)c(C)c3)S(C)(=O)=O)cc2)CC1 | 4.8% | 14 | 1.6 | 2.7 | 8% | . | 0.2%
Cc1cccc(NC(=O)CSc2nnc([C@@H]3CCCN3C(=O)OC(C)(C)C)o2)c1C | 7.2% | 7 | -0.8 | 0.5 | 19% | 1 | 0.5%
COc1ccc(CN2CCCC(C(=O)N3CCCCC3)C2)c(OC)c1 (centres undefined) | 1.0% | 39 | 0.7 | -4.4 | -18% | 1 | -1.2%
CC(=O)C1=CCC(c2cccs2)N(S(=O)(=O)c2ccc(C)cc2)C1 (centres undefined) | 1.6% | . | 0.2 | . | . | . | -1.1%
CCN(CC)C(=O)C1=C(C)N(CCCN2CCCC2=O)C(=O)C(CC(=O)NC2CCCCC2)C1 (centres undefined) | 0.7% | 7 | -0.5 | . | . | . | 0.9%
O=C(Nc1nc2ccccc2[nH]1)C1CCN(C(=O)c2ccc(F)cc2)CC1 | 0.5% | -10 | 0.5 | . | . | 11 | .
O=C(CN1CCCc2ccccc21)Nc1ccc(F)cc1[N+](=O)[O-] | 3.1% | -17 | 13 | -0.5 | 24% | 8 | -3.5%
Cc1cc(C)cc(NC(=S)N2CCN(c3ncccn3)CC2)c1 | -0.3% | -15 | 1.9 | 0.5 | 27% | 3 | -8.3%
Cc1ccc(OCC(=O)Nc2nnc(SCc3cc(=O)n4cccc(C)c4n3)s2)cc1 | 13% | -17 | 1.3 | . | . | -4 | 0.2%
COC(=O)c1ccc(NC(=O)CSc2ccc(-c3ccccn3)nn2)cc1 | 6.0% | 14 | -0.8 | . | -5% | 2 | -0.6%
O=C1C=C(c2ccc3c(c2)OCO3)CCC1 | -1.8% | 6 | -0.6 | . | . | . | -2.4%
Cc1sc2nc(SCC(=O)OC(C)C)n(C)c(=O)c2c1C | 12% | 9 | 0.2 | 3.8 | 11% | 10 | -2.7%
CCn1nnnc1SCC(=O)Nc1ccc2c(c1)OCCO2 | 0.8% | 29 | 0.1 | 1.6 | 6% | 10 | 0.4%
O=C(OCCN1C(=O)c2ccccc2C1=O)c1cnccn1 | -4.5% | 11 | 0.9 | 1.3 | 4% | 11 | -2.8%
Cc1ccccc1NC(=O)CCS(=O)(=O)c1cccc2nonc12 | 1.8% | -8 | -0.2 | -10 | 10% | ? | .
O=C(c1ccc([N+](=O)[O-])s1)N1CCCc2ccccc21 | ? | 38 | 3.2 | . | -8% | 12 | .
CCC1CCc2nc3sc(C(=O)Nc4ccc(F)c(Cl)c4)c(N)c3cc2C1 (centres undefined) | 1.8% | 12 | -0.4 | . | . | . | -4.1%
C[C@H](CO)N1C[C@H](C)[C@@H](CN(C)C(=O)Nc2ccc(C(F)(F)F)cc2)Oc2ccc(NC(=O)C3CC3)cc2C1=O | 1.0% | -11 | -0.8 | . | . | . | 1.3%
O=C1CCN(C(=O)c2cccs2)c2ccccc21 | 0.2% | -7 | -0.2 | 2.1 | 5% | 13 | .
Cc1cn([C@H]2C[C@H](O)[C@@H](CCC(=O)NCCc3cccs3)O2)c(=O)[nH]c1=O | -0.5% | -15 | 0.2 | . | . | . | -0.1%
COc1ccc(CC(=O)Nc2ccc(S(=O)(=O)Nc3ncccn3)cc2)cc1 | -0.6% | 7 | -0.6 | 4.5 | 10% | 10 | -3.9%
Cc1ccc(NC(=O)Cn2c(=O)n(CC(=O)NCCc3ccccc3)c(=O)c3ccccc32)cc1 | 1.0% | -5 | -0.4 | . | . | . | 0.0%
C/C(=N\NC(=O)c1cc(C2CC2)nc2ccccc12)c1ccc(C)s1 | 1.5% | -1 | -1.0 | -7.2 | -8% | -5 | -8.1%
CC(C)c1ccccc1NC(=S)NCCCn1ccnc1 | -0.5% | -21 | -0.1 | 0.3 | 9% | 1 | 1.1%
Nc1ccc(C(=O)OCC(=O)NC2CC2)cc1[N+](=O)[O-] | -0.3% | 50 | -0.7 | 3.6 | 10% | -5 | 1.3%
CSc1nc2ccccc2n1CC(=O)N1CCCCC1 | 0.7% | -13 | -1.0 | 2.2 | 5% | 4 | -8.4%
COC(=O)CCCN1C(=O)NC(c2ccc(-c3ccccc3)cc2)C(C(=O)OCc2ccccc2)=C1C (centres undefined) | 1.5% | 56 | 2.0 | . | . | . | -3.7%
Cc1cccc(-c2nnc(SCCC(=O)N3CCOCC3)o2)c1 | -1.9% | 3 | 0.3 | 5.7 | -14% | 2 | -4.2%
CC(=O)N(C)c1nnc(-c2cnccn2)s1 | 1.7% | -2 | 0.7 | 5.2 | 23% | 0 | ?
O=C(COC(=O)Cn1cnc2ccccc2c1=O)NCC12CC3CC(CC(C3)C1)C2 | -0.4% | -12 | -0.2 | 8.3 | 11% | -19 | -1.4%
CCOC(=O)c1sc2nc(C)n(N)c(=O)c2c1C | -1.9% | 15 | -0.7 | 1.6 | 9% | 10 | .
COc1cccc(C(O)c2nc(/C=C/c3ccccc3)cs2)c1 (centres undefined) | 2.0% | . | -0.7 | . | . | . | -7.4%
Cc1ccc(Cn2nnnc2CN2CCC(O)(c3ccccc3F)CC2)cc1 | . | 14 | 0.5 | 5.4 | 3% | -2 | -0.6%
COC(=O)c1ccc(CNC(=O)CCNC(=O)c2ccco2)cc1 | 0.0% | 11 | -0.4 | . | . | 13 | 1.1%
O=C(O)CNC(=S)N(Cc1ccc(F)cc1)C1CCCCC1 | 0.0% | -1 | -0.2 | -5.0 | -27% | 3 | .
CN1CCC(N2CCN(C3CN(CCc4ccccc4)S(=O)(=O)C3)CC2)CC1 (centres undefined) | 0.4% | . | 0.2 | . | . | . | 1.6%
CN1CCC(=O)N(CCSc2ccccc2)CC1 | -0.1% | -8 | -0.5&-0.2 | 2.4 | 15% | 2 | 0.9%&0.9%
O=C(COC(=O)c1ccc(Cl)cc1[N+](=O)[O-])NC(=O)c1ccccc1 | -0.1% | 4 | -0.5 | 4.1 | 11% | -17 | -0.2%
O=C(Nc1ccc(CN2CCOCC2)cc1)c1ccc(-c2cc(Cl)ccc2Cl)o1 | -3.3% | 19 | 0.7 | 3.9 | 3% | -15 | ?
CC1CCN(C(=O)C(C)c2ccc([N+](=O)[O-])cc2)CC1 (centres undefined) | -0.2% | -9 | 0.1 | -4.0 | 13% | -1 | .
Cc1ccc(S(=O)(=O)N2CCN(Cc3nc4sc5c(c4c(=O)[nH]3)CCCC5)CC2)cc1 | 4.2% | 6 | -0.2 | 11 | 0% | -2 | -0.7%
Cc1c(NC(=O)CCC(=O)N2CCCCC2)c(=O)n(-c2ccccc2)n1C | 0.8% | 13 | -0.2 | 2.0 | 15% | 0 | -0.6%
CCC(=O)c1ccc(OCC(=O)Nc2ccc3c(c2)OCCO3)cc1 | 1.6% | -8 | 0.6 | . | . | . | -2.1%

(list continues)
SMILES | PINK1 expr mod | TRPML1 blocker | TRPML1 ag | Menin MLL FP FL | Sfp PPTase inh | TRPV1 potentiator | ClpP mod
COc1ccc(Cl)cc1S(=O)(=O)N1CCC(O)(c2ccc(Cl)cc2)CC1 | 5.1% | -10 | 2.9 | 3.2 | 3% | 0 | 1.3%
CC(Oc1ccc(Cl)cc1Cl)C(=O)N(Cc1ccco1)C1CCS(=O)(=O)C1 (centres undefined) | -1.0% | -6 | -0.7 | -2.3 | 0% | 5 | 1.1%
COc1ccc(CNC(=O)C2CCN(S(=O)(=O)c3c(C)noc3/C=C/N(C)C)CC2)cc1 | -0.5% | -8 | 0.1 | . | 4% | ? | -3.9%
Cn1c(SCC(=O)Nc2ccc(N3CCOCC3)c(Cl)c2)nnc1C(O)c1ccccc1 (centres undefined) | -4.2%[38.3 µM] | 5 | -0.4 | -1.0 | 18% | 6 | 1.2%
Cn1c(=O)[nH]c(=O)c2c1nc(N1CCCCC1)n2CCCSc1nc2ccccc2s1 | -0.3% | 6 | 0.0 | 9.8 | -12% | -4 | 1.1%
CNC[C@@H](CC1CCCCC1)NC[C@H](CC(C)C)NCCc1cccc(C(F)(F)F)c1 | -1.5% | -7 | 2.2 | -7.4 | 16% | 7 | -27%
CCNC(=O)C1(C)CCN(C(=O)c2ccc(OC)cc2OC)C1 (centres undefined) | -0.3% | . | -0.5 | . | . | . | -2.4%
COc1ccccc1C(=O)NC(C)C(c1cccs1)N1CCN(C)CC1 (centres undefined) | -4.5%[38.3 µM] | 8 | 0.4 | 2.5 | -9% | 5 | -3.6%
O=C(CNS(=O)(=O)c1ccc(Br)s1)N1CCN(c2ccccc2F)CC1 | 0.7% | -9 | -0.1 | . | . | . | -1.5%
Cc1cc(C)c(NC(=O)Cn2ncc3ccccc32)c(C)c1 | 1.4% | ? | -1.6 | -4.1 | -4% | -12 | -0.5%
CCn1c(C)nc2cc(S(N)(=O)=O)ccc21 | -1.4% | 3 | 0.7 | -4.8 | 0% | 14 | .
CNC(=O)c1nnn(Cc2ccccc2)c1NC(=O)C(F)(F)F | -3.1% | -13 | 2.5 | 0.8 | 8% | 11 | -0.2%
